N370S GC = N370S glucocerebrosidase modulation, Gaucher chaperone candidate; P04062; N370S GC spleen homogenate, 4MU-glucoside fluorescence; Potency, µM (top dose mostly 59.4 µM), for inactives: at the top dose activity change, negative = inhibition, usual class: inhibitors; 330,000 compounds, 0.092% hits; active means well fitted inhibition curve with a large enough effect;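 further: 0% = full enzyme activity and -100% = no enzyme basal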
Starred values were filed as active, the others as inactive. Potency means the concentration at half of the fitted maximal effect. Only part of the results is shown; most or all hits stand in other tables.

structure,N370S GC
CC(C)N1CCN(Cc2ccccc2C(F)(F)F)CC1CCO (stereo unspecified),-5.9%
O=Cc1cn(Cc2cccc([N+](=O)[O-])c2)c2ccccc12,11.3%
Cc1nc2cc([N+](=O)[O-])ccc2c(=O)n1-c1ccccc1[N+](=O)[O-],7.7%
CCCN1CCC[C@@H](c2cccc(O)c2)C1,-1.1%
Cc1ccc(C2N(c3ccccn3)C(=O)C3CCCN32)o1 (stereo unspecified),-0.3%
CN(C)c1ccc(C=C(C#N)C#N)cc1,-14.9%
O=C(N/N=C1/CN2CCC1CC2)c1cccc(O)c1,8.6%
N#Cc1ccc(NC(=O)CN2CCCCCC2)cc1Cl,-3.9%
COc1ccc(C)cc1NC(=O)N1CCC2(CC1)OCCO2,1.8%
CC(C)c1cccc(C(C)C)c1O,-1.0%
COc1ccc(OC)c(-n2c(O)c(C=NCc3ccc4c(c3)OCO4)c(=O)[nH]c2=O)c1,15.1%

Grouped by structure: the compounds so far with a cyano group.
structure,N370S GC
CN(C)c1ccc(C=C(C#N)C#N)cc1,-14.9%
N#Cc1ccc(NC(=O)CN2CCCCCC2)cc1Cl,-3.9%

Structures listed so far that have a halogen:
structure,N370S GC
CC(C)N1CCN(Cc2ccccc2C(F)(F)F)CC1CCO (stereo unspecified),-5.9%
N#Cc1ccc(NC(=O)CN2CCCCCC2)cc1Cl,-3.9%

Screens (PubChem)
